High-throughput results (PubChem BioAssay)
rRNA inh HTS – selective bacterial rRNA inhibition in E. coli; E. coli WT GFP vs humanized-ribosome RFP mutants, fluorescence, 24 h; stronger effect = lower value; DMSO median 0, no signal -100; 350,000 compounds, 1.6% hits; AID 720706; GFP signal change (wild-type ribosome), % (concentration not given with the values);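 active = significant combined selectivity score with lowered wild-type GFP, culture density cut under 30%, mutant RFP and density less affected; inactive = any of these conditions unmet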; note: one replicate is shown; some compounds called inactive have numbers as strong as hits
rRNA inh HTS OD600 – recorded beside rRNA inh HTS, whose call it bears; OD600 change, %; measured here: OD600 growth;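 optical density of the mix in the first replicate; 0 = DMSO median and -100 = no signal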
rRNA inh HTS RFP – also measured in rRNA inh HTS; calls as there; RFP signal change, %; measured here: RFP humanized mutant strains;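 first replicate; 0 = DMSO median and -100 = no signal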
Starred values were filed as active, the others as inactive; & = joins results of further samples. The list is partial; the hit share may differ from the screen's.

Structure	rRNA inh HTS	rRNA inh HTS OD600	rRNA inh HTS RFP
C[C@H](CO)N1C[C@H](C)[C@H](CN(C)C(=O)Nc2cccc(C(F)(F)F)c2)OCc2cn(nn2)CCCC1=O	-3	-6	-0.7
CC(C)COC(=O)N(C)C[C@@H]1OCc2ccccc2-c2c(n(C)c3ccccc23)C(=O)N([C@@H](C)CO)C[C@@H]1C	-8	-11	6.2
C[C@@H]1CN([C@H](C)CO)C(=O)c2cc(C#CC(C)(C)O)cnc2O[C@@H]1CN(C)C(=O)C1CCCCC1	5	-1	-1.8
C[C@@H]1CN([C@@H](C)CO)C(=O)c2cc(NS(=O)(=O)c3ccc(Cl)cc3)ccc2O[C@@H](C)CCCCO[C@H]1CN(C)Cc1ccccc1	-3	-34	28
COc1cc(-c2cc(NC(C)=O)c3ncc(-c4cc(OC)c(OC)c(OC)c4)n3c2)cc(OC)c1OC	-12	-4	4.7
CCCN(C)C[C@@H]1OCCCC[C@@H](C)Oc2ccc(N(C)C)cc2C(=O)N([C@H](C)CO)C[C@@H]1C	1	1	-1.2
O=C(Nc1cccc(F)c1)N1CCCCN2[C@@H](CO)[C@H](c3ccc(C#CC4CC4)cc3)[C@@H]2C1	-59	-74	-11
COc1ccc(CNC(=O)C2CCN(S(=O)(=O)c3ccc4nc5c(c(C(=O)O)c4c3)CCCC5)CC2)cc1	5	13	-1.0
COc1cccc(-c2ccc(C3[C@H]4CNC[C@@H]3N4C(=O)Nc3ccccc3Cl)cc2)c1 (stereo partly specified)	-2&-59	-10&-79	0.2&-15
COc1ccc([C@H]2CN(c3ccccc3)C(=O)[C@@H]2CC(=O)Nc2ccccc2)cc1	-4	-16	-0.6
C[C@H]1CN([C@@H](C)CO)S(=O)(=O)c2ccc(-c3cccnc3)cc2O[C@H]1CN(C)CC1CC1	3	-10	-2.2
C[C@H]1CN([C@@H](C)CO)C(=O)Cc2cc(NC(=O)C3CCCCC3)ccc2O[C@H]1CN(C)C(=O)Nc1ccc(C(F)(F)F)cc1	-2	1	3.1
CN1CCCC(C)(C(=O)Nc2ccc(-n3cccc3)cc2)C1 (stereo unspecified)	20	9	3.1
C[C@@H]1CN([C@@H](C)CO)C(=O)c2cc(NC(=O)C3CCCCC3)ccc2O[C@@H](C)CCCCO[C@H]1CN(C)Cc1ccc(C(=O)O)cc1	2	8	-1.5
C[C@H]1CN([C@@H](C)CO)C(=O)c2cccc(NC(=O)C3CC3)c2O[C@@H]1CN(C)Cc1ccncc1	3	-1	-1.7
COc1ccc2c3c([nH]c2c1)[C@H](CO)N(Cc1ccccc1OC)CC31CN(C)C1	2	-1	5.8
CCCC(=O)N1CCC2(CC1)CN(C(=O)CC)[C@H](CO)c1c2c2ccc(OC)cc2n1C	0	4	-4.7
CCNC(=O)C[C@@H]1C=C[C@@H](NC(=O)NC2CCCCC2)[C@H](CO)O1	1	7	-1.8
C[C@H](CO)N1C[C@H](C)[C@@H](CN(C)S(C)(=O)=O)Oc2c(NC(=O)CCC(F)(F)F)cccc2C1=O	1	0	-1.4
CCC(=O)N1CCCCN2[C@H](CO)[C@H](c3ccc(C#Cc4ccccc4)cc3)[C@@H]2C1	-55	-72	-7.8
C[C@@H]1CN([C@@H](C)CO)C(=O)CCCn2nncc2CO[C@@H]1CN(C)Cc1ccc2cccnc2c1	-2	0	0.2
COCC#Cc1ccc2c(c1)O[C@H](CN(C)C(=O)C1CCCCC1)[C@H](C)CN([C@@H](C)CO)S2(=O)=O	-3	-5	-3.0
C[C@@H]1COc2cccc(N3CCCCC3)c2S(=O)(=O)N1	1	2	1.0
CC(C)NC(=O)Nc1ccc2c(c1)C(=O)N([C@@H](C)CO)C[C@H](C)[C@H](CN(C)C(=O)Nc1ccc(F)cc1)OCCCC[C@@H](C)O2	9	11	-1.2
CCCC#Cc1cnc2c(c1)C(=O)N([C@@H](C)CO)C[C@H](C)[C@@H](CN(C)C)O2	7	6	-4.5
CCCNC(=O)N1CC2(C1)CN(Cc1ccc(F)cc1)[C@H](CO)c1[nH]c3cc(OC)ccc3c12	-4	-1	-0.7
N#Cc1ccc(-c2ccc([C@@H]3[C@@H](CO)N4C(=O)CN(C(=O)C5CCCCC5)C[C@H]34)cc2)cc1	-1	-3	0.2
O=S(=O)(c1ccc(F)cc1)N1CC[C@@H]2[C@H](CO)Nc3ccc(C#CC4CC4)cc3[C@@H]21	2	6	-4.2
C[C@@H]1CN([C@@H](C)CO)C(=O)c2cc(C#Cc3ccccc3F)cnc2O[C@H]1CN(C)C(=O)C1CCCCC1	-1	-4	10
COc1ccccc1NC(=O)N1[C@@H](C#N)[C@@H](c2ccccc2)[C@@H]1CO	-1	8	-2.1

Ten consecutive entries from above, for reference:
Structure	rRNA inh HTS	rRNA inh HTS OD600	rRNA inh HTS RFP
C[C@H](CO)N1C[C@H](C)[C@H](CN(C)C(=O)Nc2cccc(C(F)(F)F)c2)OCc2cn(nn2)CCCC1=O	-3	-6	-0.7
CC(C)COC(=O)N(C)C[C@@H]1OCc2ccccc2-c2c(n(C)c3ccccc23)C(=O)N([C@@H](C)CO)C[C@@H]1C	-8	-11	6.2
C[C@@H]1CN([C@H](C)CO)C(=O)c2cc(C#CC(C)(C)O)cnc2O[C@@H]1CN(C)C(=O)C1CCCCC1	5	-1	-1.8
C[C@@H]1CN([C@@H](C)CO)C(=O)c2cc(NS(=O)(=O)c3ccc(Cl)cc3)ccc2O[C@@H](C)CCCCO[C@H]1CN(C)Cc1ccccc1	-3	-34	28
COc1cc(-c2cc(NC(C)=O)c3ncc(-c4cc(OC)c(OC)c(OC)c4)n3c2)cc(OC)c1OC	-12	-4	4.7
CCCN(C)C[C@@H]1OCCCC[C@@H](C)Oc2ccc(N(C)C)cc2C(=O)N([C@H](C)CO)C[C@@H]1C	1	1	-1.2
O=C(Nc1cccc(F)c1)N1CCCCN2[C@@H](CO)[C@H](c3ccc(C#CC4CC4)cc3)[C@@H]2C1	-59	-74	-11
COc1ccc(CNC(=O)C2CCN(S(=O)(=O)c3ccc4nc5c(c(C(=O)O)c4c3)CCCC5)CC2)cc1	5	13	-1.0
COc1cccc(-c2ccc(C3[C@H]4CNC[C@@H]3N4C(=O)Nc3ccccc3Cl)cc2)c1 (stereo partly specified)	-2&-59	-10&-79	0.2&-15
COc1ccc([C@H]2CN(c3ccccc3)C(=O)[C@@H]2CC(=O)Nc2ccccc2)cc1	-4	-16	-0.6

Next part:
Structure	rRNA inh HTS	rRNA inh HTS OD600	rRNA inh HTS RFP
COc1cccc(/C=N/NC(=O)c2nnn(-c3nonc3N)c2CN(C)C2CCCCC2)c1	9	10	-4.3
C[C@@H]1CN([C@H](C)CO)C(=O)c2cc(C3=CCCCC3)cnc2O[C@@H]1CN(C)C(=O)Nc1cccc(F)c1	-3	6	8.1
CO[C@H]1CN(C)C(=O)c2ccc(NC(=O)Nc3ccccc3F)cc2OC[C@H](C)N(C(C)=O)C[C@@H]1C	0	-4	1.1
Cc1ccc(-c2ccc([C@H]3[C@H]4CN(C(=O)CN5CCOCC5)CC(=O)N4[C@H]3CO)cc2)cc1	5	6	-0.2
CCC(=O)N1CC2(C1)CN(Cc1ccccc1Cl)[C@@H](CO)c1c2c2ccc(OC)cc2n1C	-3	-5	-1.4
CCCCCCN1C[C@@H](n2cc(-c3ccc(F)cc3)nn2)[C@H](O)C[C@@H]1c1ccccc1	-5	-10	1.6
CCN=C1NC(c2ccccc2C(F)(F)F)C(C(=O)OC)=C(C)N1C (stereo unspecified)	22	23	5.7
COc1cccc(NC(=O)N2CC(=O)N3[C@@H](CO)[C@H](c4ccc(C#CC5CCCCC5)cc4)[C@@H]3C2)c1	3	-1	0.7
CO[C@@H]1CN(C)C(=O)c2ccc(NC(=O)Nc3ccccc3F)cc2OC[C@@H](C)N(CC2CC2)C[C@H]1C	0	-10	2.7
CC(=O)N1[C@H](CN(C)C(=O)C2CCC2)[C@@H](c2ccccc2)[C@@H]1CO	1	9	-1.9
O=C(C[C@H]1C=C[C@@H](NC(=O)Nc2cccc(F)c2)[C@H](CO)O1)NCC1CC1	0	1	-1.1
COc1ccc(NC(=O)Nc2ccc3c(c2)C(=O)N([C@@H](C)CO)C[C@H](C)[C@H](CN(C)Cc2ccncc2)O3)cc1	-2	-16	3.0
CCC(=O)N1CC2(CN(Cc3cccnc3)C2)c2c(n(C)c3cc(OC)ccc23)[C@@H]1CO	1	-2	-2.1
CO[C@H]1CN(C)C(=O)c2cc(NS(C)(=O)=O)ccc2OC[C@@H](C)N(C(=O)CN(C)C)C[C@@H]1C	1	-4	2.6
Cc1onc(-c2ccccc2)c1C(=O)NC1CCCCC1C (stereo unspecified)	4	20	-1.1
COc1ccc(C#Cc2ccc3c(c2)O[C@H](CN(C)C(=O)CN2CCOCC2)[C@@H](C)CN([C@H](C)CO)S3(=O)=O)cc1	-2	-9	1.2
C[C@H]1CN([C@@H](C)CO)C(=O)Cc2cc(NC(=O)Nc3ccc(F)cc3)ccc2O[C@@H]1CN(C)S(=O)(=O)c1ccccc1	-5	-10	0.2
CO[C@H]1CN(C)C(=O)c2cc(NC(=O)C3CC3)ccc2OC[C@H](C)N(C(=O)CN(C)C)C[C@@H]1C	-3	-7	-2.2
CN(C)C(=O)CNc1ccn2nc(-c3cccc(OCCN4CCOCC4)c3)cc2n1	8	1	1.6
O=C(C[C@H]1CC[C@@H](NC(=O)c2cccnc2)[C@H](CO)O1)NCc1ccncn1	2	2	1.1
CCN1[C@@H]2Cn3c(ccc(-c4ccccc4F)c3=O)[C@H]1[C@@H](C(=O)NCCOC)[C@@H]2CO	3	6	-1.5
C[C@@H]1CN([C@H](C)CO)C(=O)Cc2cc(NC(=O)Nc3ccccc3)ccc2O[C@H]1CN(C)C(=O)Nc1cccc2ccccc12	-1	-8	1.4
CC(=O)Nc1ccc(C(=O)N2CCCCC2c2cc(C(=O)NC(C)C)no2)cc1 (stereo unspecified)	7	15	2.7
Cc1noc(C)c1NC(=O)NCC[C@@H]1CC[C@H](NC(=O)Cc2cccnc2)[C@@H](CO)O1	4	9	2.4
O=C(O)c1ccccc1-c1ccc(C=c2sc3nc4cc(Br)cnc4n3c2=O)o1	11	14	0.8
C[C@@H]1CN([C@H](C)CO)C(=O)c2cccc(NC(=O)c3ccc(-c4nccs4)cc3)c2O[C@H]1CN(C)C(=O)NC1CCCCC1	0	-1	-3.8
O[C@H]1CN(Cc2cccs2)[C@@H](c2ccccc2)C[C@@H]1n1cc(C2CC2)nn1	-20	-26	-5.9
CCC(=O)N(C)C[C@H]1Oc2ncc(C3=CCCC3)cc2C(=O)N([C@@H](C)CO)C[C@@H]1C	4	5	-2.8
CN(C[C@@H]1[C@@H](c2ccccc2)[C@@H](CO)N1Cc1ccccn1)S(C)(=O)=O	2	6	0.6
C[C@@H]1CN([C@@H](C)CO)C(=O)Cc2cc(NC(=O)c3ccncc3)ccc2O[C@H]1CN(C)Cc1ccc(Oc2ccccc2)cc1	-23	-30	9.8

An excerpt of these results, field by field:
Structure: O=C(C[C@H]1C=C[C@@H](NC(=O)Nc2cccc(F)c2)[C@H](CO)O1)NCC1CC1
  rRNA inh HTS = 0
  rRNA inh HTS OD600 = 1
  rRNA inh HTS RFP = -1.1
Structure: COc1ccc(NC(=O)Nc2ccc3c(c2)C(=O)N([C@@H](C)CO)C[C@H](C)[C@H](CN(C)Cc2ccncc2)O3)cc1
  rRNA inh HTS = -2
  rRNA inh HTS OD600 = -16
  rRNA inh HTS RFP = 3.0

The list continues:
Structure	rRNA inh HTS	rRNA inh HTS OD600	rRNA inh HTS RFP
CCOc1ccc(CCN2C(=O)C(=O)N([C@@H](Cc3ccc(O)cc3)CN3CCC[C@H]3CN3C(=O)C(=O)NC[C@@H]3CC(C)C)C[C@@H]2Cc2ccccc2)cc1	-11	-6	3.4
C[C@@H]1CN(C)C(=O)Cc2cc([N+](=O)[O-])ccc2O[C@H]1CN(C)C(=O)OC(C)(C)C	0	5	-0.5
COc1ccc(S(=O)(=O)Nc2cccc3c2O[C@@H](CN(C)C(=O)Nc2ccc4c(c2)OCO4)[C@@H](C)CN([C@@H](C)CO)C3=O)cc1	2	-1	3.8
CCCC#Cc1ccc2c(c1)O[C@H](CN(C)C(C)=O)[C@H](C)CN([C@H](C)CO)S2(=O)=O	-3	-3	-3.0
C[C@@H]1CN([C@H](C)CO)C(=O)Cc2cc(NC(=O)CCC(F)(F)F)ccc2O[C@H]1CN(C)Cc1ccc2c(c1)OCO2	-5	-10	0.2
C[C@@H]1CN([C@@H](C)CO)C(=O)Cc2cc(NC(=O)c3ccncc3)ccc2O[C@@H]1CN(C)S(=O)(=O)c1ccc(Cl)cc1	0	9	0.6
Cc1noc(C)c1S(=O)(=O)Nc1cccc2c1O[C@H](CN(C)Cc1ccncc1)[C@H](C)CN([C@H](C)CO)C2=O	-2	-4	0.2
COc1ccc2c3c(n(C)c2c1)[C@@H](CO)N(C(=O)CN(C)C)CC31CCN(C(=O)NC(C)C)CC1	2	1	-0.7
COc1ccc(S(=O)(=O)N(C)C[C@@H]2Oc3ccc(NC(=O)NC4CCCCC4)cc3CC(=O)N([C@H](C)CO)C[C@H]2C)cc1	-4	-7	1.6
O=C(Nc1ccc([N+](=O)[O-])cc1)c1cccc([N+](=O)[O-])c1	2	7	-4.0
CO[C@@H]1CN(C)C(=O)c2ccc(NC(=O)C3CCOCC3)cc2OC[C@@H](C)N(C)C[C@@H]1C	2	4	-2.4
CC(C)[C@@H]1CCc2cnnn2COC[C@H](Cc2ccccc2)NC1=O	9	13	-1.7
COc1ccc(S(=O)(=O)N(C)C[C@H]2Oc3ccc(NC(=O)Nc4ccc(F)cc4)cc3CC(=O)N([C@@H](C)CO)C[C@H]2C)cc1	1	-6	3.0
C[C@H]1CN([C@@H](C)CO)C(=O)c2cc(NC(=O)CCCCCC(=O)Nc3ccccc3N)ccc2O[C@H]1CN(C)Cc1ccncc1	4	9	0.4
C[C@@H]1CN([C@@H](C)CO)C(=O)c2cccc(NC(=O)c3cnccn3)c2O[C@H]1CN(C)Cc1ccc(C(F)(F)F)cc1	-6	0	-1.0
